ALR H2O2 inh – blocks human ALR sulfhydryl oxidase activity; inhibition, % (concentration not given with the values); purified ALR, DTT oxidation, H2O2 HRP-luminol luminescence; 3.8% of 290,000 active; P55789;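 active = mean and each replicate at 75% or more; inconclusive = only one of the two met; inactive = neither met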;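 note: stock transfer was 7.5 nL into about 7.5 µL; 0% = neutral wells and 100% = wells with inactivated enzyme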
B2AR ag – activates human beta-2 adrenergic receptor causing internalization. 0.43% of 340,000 active. AID 504454. response, % (test concentration not listed). Am2.2-beta2AR cells, FAP receptor internalization, flow cytometry; reference of the scale not given here. P07550;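 active = response above a set limit, near 3 SD of response in nonfluorescent compounds, cut at about 42% in these data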;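 note: stock transfer was 100 nL into about 11 µL; a reference agonist was the positive control; negative values mostly stem from fluorescent compounds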
Beta apoptosis – blocks beta cell apoptosis. INS-1E cytokine-induced death, ATP luminescence, 48 h; percent of positive-control rescue, neutral wells zero. protection from apoptosis, % (no concentration beside the values). 0.8% of 300,000 active. AID 435005;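 active = all replicates at 75% or more, or half of them and the mean; inconclusive = half reach 75% but not the mean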;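 note: 0% = cytokine-treated negative control wells and 100% = positive control rescue; higher means more ATP so stronger rescue from cytokine killing; wells of about 40 µL received 100 nL stock; the first replicate is given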
A1 inh – inhibitors of the anti-apoptotic protein A1, read as caspase activation | MEF A1-2A-BIM cells, Caspase-Glo 3/7 luminescence, 3 h; percent of clofoctol response, vehicle zero | caspase activation, % (test concentration not listed) | 0.066% of 330,000 active | AID 2462;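 active = over half of replicate activation scores above 10%, or exactly half above 10 with the replicate mean above 10; inconclusive = replicate mean below 10 yet half the replicates above 10; inactive = over half of replicates below 10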;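 note: wells of about 30 µL received 50 nL stock; many hits fall short of the cut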
T cruzi repl – blocks replication of Trypanosoma cruzi; T. cruzi beta-gal in NIH3T3, luminescence, 90 h; inhibition, % (test concentration not listed); 1.4% of 300,000 active; AID 1885;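 active = mean inhibition across valid replicates above about 55%, limit read from the data; inconclusive = mean below that limit but half or more replicates reach it; inactive = mean below it, under half of replicates reach it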;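 note: signal also drops with host cell toxicity which is not excluded here; 0% = plate median of DMSO wells and 100% = zero luminescence signal; higher percent means less beta-gal luminescence so fewer parasites; stock transfer was 50 nL into about 50 µL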
rRNA inh HTS – selective bacterial rRNA inhibition in E. coli. E. coli WT GFP vs humanized-ribosome RFP mutants, fluorescence, 24 h; hits give low values; DMSO median 0, no signal -100. GFP signal change (wild-type ribosome), % (no concentration beside the values). 1.6% of 350,000 active;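 active = significant combined selectivity score with lowered wild-type GFP, culture density cut under 30%, mutant RFP and density less affected; inactive = any of these conditions unmet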; note: one replicate is shown; some compounds called inactive have numbers as strong as hits
LANA-H2B inh – blocks KSHV LANA binding to histone H2A/H2B; inhibition, % (test concentration not listed); AID 2629; 0.6% of 320,000 active; cell-free LANA-H2A/H2B peptide, fluorescence polarization; in the data active = inhibition mostly above about 10%, no sharp cut-off; inactive = mostly below about 6.7%;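 note: stock transfer was 7.5 nL into about 10 µL; 0% = median of vehicle wells and 100% = median of positive control wells; one replicate is shown; the record names a cut of 25% in any replicate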
Target sequence (Q9QR71 whole entry, looked up): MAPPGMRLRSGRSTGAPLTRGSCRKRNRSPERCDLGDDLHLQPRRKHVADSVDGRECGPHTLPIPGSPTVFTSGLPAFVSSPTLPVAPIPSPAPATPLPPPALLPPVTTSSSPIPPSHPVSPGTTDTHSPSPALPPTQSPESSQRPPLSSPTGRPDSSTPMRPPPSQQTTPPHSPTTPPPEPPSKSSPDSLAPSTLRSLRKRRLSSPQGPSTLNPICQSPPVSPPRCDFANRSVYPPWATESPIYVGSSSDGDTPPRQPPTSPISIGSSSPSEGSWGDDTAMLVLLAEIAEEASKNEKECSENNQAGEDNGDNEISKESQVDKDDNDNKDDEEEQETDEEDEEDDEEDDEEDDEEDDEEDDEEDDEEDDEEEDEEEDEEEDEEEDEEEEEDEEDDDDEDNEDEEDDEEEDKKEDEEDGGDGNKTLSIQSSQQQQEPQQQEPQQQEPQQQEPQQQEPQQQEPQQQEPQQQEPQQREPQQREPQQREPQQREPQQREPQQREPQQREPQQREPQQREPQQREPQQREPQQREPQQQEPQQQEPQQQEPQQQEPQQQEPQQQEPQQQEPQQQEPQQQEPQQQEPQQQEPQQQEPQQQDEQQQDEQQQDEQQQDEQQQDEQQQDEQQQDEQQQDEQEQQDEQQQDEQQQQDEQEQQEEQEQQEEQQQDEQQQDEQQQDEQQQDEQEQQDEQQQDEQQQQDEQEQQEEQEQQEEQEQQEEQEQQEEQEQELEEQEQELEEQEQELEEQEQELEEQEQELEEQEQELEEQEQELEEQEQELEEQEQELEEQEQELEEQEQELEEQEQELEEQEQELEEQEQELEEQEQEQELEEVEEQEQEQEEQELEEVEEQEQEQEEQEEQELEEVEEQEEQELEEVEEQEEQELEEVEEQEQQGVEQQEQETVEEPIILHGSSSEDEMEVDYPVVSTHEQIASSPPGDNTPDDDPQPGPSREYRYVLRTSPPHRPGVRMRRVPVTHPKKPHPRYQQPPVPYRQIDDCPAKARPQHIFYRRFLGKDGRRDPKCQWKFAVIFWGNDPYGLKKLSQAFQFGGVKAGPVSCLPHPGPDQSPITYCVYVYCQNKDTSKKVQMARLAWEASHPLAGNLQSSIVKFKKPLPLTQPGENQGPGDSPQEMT
Calb FLC – affects C. albicans growth with fluconazole. C. albicans CaCi-2 (fluconazole-resistant clinical isolate) + fluconazole, Alamar Blue growth, 48 h. growth inhibition, % (concentration not given with the values). 0.57% of 300,000 active;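 active = most replicates above 75%; inconclusive = exactly half above 75%; inactive = most below 75%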;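 note: all wells also contain fluconazole at 8 µg/ml as a sub-toxic cotreatment; 0% = median of DMSO wells and 100% = median of geldanamycin control wells; wells of about 8 µL received 7.5 nL stock; the first replicate is given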
rRNA inh HTS OD600 – second read-out of rRNA inh HTS, no call of its own (marks repeat the call); OD600 change, %; measured here: OD600 growth;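 optical density of the mix in the first replicate; 0 = DMSO median and -100 = no signal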
rRNA inh HTS RFP – second read-out of rRNA inh HTS, no call of its own (marks repeat the call); RFP signal change, %; measured here: RFP humanized mutant strains;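 first replicate; 0 = DMSO median and -100 = no signal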
Active calls of the source: *; ? = inconclusive; . = no result given; & = joins results of further samples. This is a subset. The share of hits here may be higher or lower than overall.

SMILES	ALR H2O2 inh	B2AR ag	Beta apoptosis	A1 inh	T cruzi repl	rRNA inh HTS	rRNA inh HTS OD600	rRNA inh HTS RFP	LANA-H2B inh	Calb FLC
CCCOc1ccc(-c2nn(-c3ccccc3)cc2/C=C2\SC(N)=NC2=O)cc1	0.3	-9.8	5.5	0.3	-10.7	2.0	0.3	-3.7	1.3	-12.7
COc1ccc(-c2nc(CS(=O)CC(=O)NC3CCCCC3C)c(C)o2)cc1 (configuration not stated)	99.0*	-3.0	-7.2	1.0	30.4	-3.6	-10.7	0.8	-2.2	0.0
O=C(CCC(=O)N1CCSc2ccccc21)Nc1cccc(F)c1	-6.8	1.9	-2.2	-1.0	-2.6	-0.3	-4.6	1.6	-5.3	-3.4
Cc1ccc(Nc2nc(N)c3ccccc3n2)cc1C	53.8	3.6	36.7	-9.5	36.9	-10.2	-37.6	-4.0	-9.9	4.2
O=C(OCc1cccc(F)c1)c1cc2ccccc2cc1O	-6.0	-3.1	-4.3	0.7	-0.6	-1.1	-7.1	-3.6	0.4	8.2
COc1cc(-n2cnnn2)ccc1S(=O)(=O)N1CCOCC1	-6.2	-8.3	-4.7	0.3	-13.9	.	.	.	1.4	32.9
CCCCCC(=O)Nc1cccc(C2=NOC3(C2)C[C@@H](C(N)=O)N(C(=O)CC(c2ccccc2)c2ccccc2)C3)c1 (some centres not stated)	-10.1	5.5	-1.7	-0.3	76.2*	5.6	2.1	27.6	2.4	7.0
CCCCNC(=O)c1[nH]c(C)c(C(C)=O)c1C	-3.8	4.4	-6.1	-0.4	-13.2	-1.3	-2.3	-2.2	2.5	2.8
O=C(c1cc(C(=O)c2ccco2)cc(C(=O)c2ccco2)c1)c1ccco1	96.8*	-7.7	0.7	0.3	4.9	24.3	9.6	3.7	-2.2	-1.4
CN1C(=O)/C(=C/c2ccccc2Cl)Sc2ccc(C(=O)NCc3cccnc3)cc21	-4.1	14.5	-1.4	0.0	9.3	-25.0	-25.6	11.5	6.0	29.4
CCOC(=O)c1c(NC(=O)CC2SC(N)=NC2=O)sc2c1CCC(C)C2 (configuration not stated)	-7.2	1.4	.	0.4	17.8	.	.	.	-3.8	10.6
CCCCSc1nc2sc3c(c2c(=O)n1-c1ccccc1)CCN(C)C3	0.1	-9.0	13.2	-0.2	55.1*	-10.7	-6.9	10.6	-2.9	-16.6
COc1cccc(OCc2cc(C(=O)N(Cc3ccccc3)CC3CC3)no2)c1	0.7	-1.6	-3.3	0.9	18.7	-1.8	-9.2	4.3	-6.6	0.9
CCOc1ccccc1NC(=O)CCCCCN1C(=O)[C@@H]2Cc3ccccc3CN2C1=O	-6.7	-6.0	-1.1	-0.1	8.2	-7.4	-17.9	-0.1	0.2	-6.7
O=C(Nc1ccc(O)cc1)N1CCOCC1	99.0*	0.6	.	-0.2	-4.1	5.6	1.9	1.4	0.8	9.2
O=C(NC(=S)Nc1ncccn1)c1ccc(Cl)cc1Cl	13.9	-10.7	-9.8	-0.1	-5.0	-2.0	0.6	11.8	0.5	38.3
COc1ccc(S(=O)(=O)N2CCN(C(=O)N(C)C)C2C)cc1 (configuration not stated)	-1.2	7.3	-6.9	0.7	-9.0	3.7	13.1	2.2	-11.4	-9.3
CC(=O)Cn1c(=O)c2c(nc3n2CCCN3Cc2ccccc2)n(C)c1=O	2.6	5.0	-1.6	1.0	-15.9	1.3	8.9	-1.3	-3.4	6.8
O=C(CCc1nc2ccccc2c(=O)[nH]1)NC1CCN(Cc2ccccc2)CC1	-12.0	-4.2	1.1	-0.4	1.5	.	.	.	-1.3	7.5
COCCNC(=O)C1CC2Cn3c(nc4cc5ccccc5cc43)C2N1C (configuration not stated)	.	-4.5	-1.3	-0.1	-10.6	1.3	11.2	5.6	2.4	4.9
CCCCN1C(=N)N([C@@H](C)CN2CCC[C@H]2CN2C(N)=NC[C@@H]2Cc2ccccc2)C[C@H]1Cc1ccccc1	0.0	-2.2	-10.4	-0.1	.	4.2	-4.5	10.2	-9.7	.
NC1=NC2CS(=O)(=O)CC2S1 (configuration not stated)	-19.5	3.6	-3.8	0.4	1.1	13.3	4.3	-11.4	2.8	8.6
CCOc1ccc(C2CC(c3ccc(CC)cc3)Nc3nc(N)nn32)cc1 (configuration not stated)	.	-2.7	-11.0	-0.9	40.3	8.9	7.5	2.4	-1.4	-3.2
O=C(N/N=C/c1cccnc1)c1cccc(NC(=O)c2ccc(Cl)cc2)c1	.	-4.1	-0.7	0.0	1.8	.	.	.	-12.8	6.8
COc1ccc(C2c3[nH]c4ccccc4c3C[C@H]3C(=O)N(c4ccccc4C(=O)N4CCC[C@H]4C(=O)O)C(=O)N23)cc1 (some centres not stated)	98.0*	1.7	.	0.1	-6.0	2.4	-14.2	6.1	1.2	9.3
Cc1ccc(O)c(CNc2nc3ccccc3n2C(C)C)c1	98.1*	-2.1	-15.4	0.2	-3.4	-3.8	-10.7	-2.8	-1.0	-14.1
COc1ccccc1NS(=O)(=O)c1ccc(Cl)c(NC(=O)C(C)N2C(=O)c3ccccc3C2=O)c1 (configuration not stated)	.	4.7	4.6	1.7	-0.5	.	.	.	.	9.8
COc1ccc(Br)c2oc(SC)cc(=O)c12	5.8	-4.5	2.2	-0.2	-13.6	-13.8	-8.5	-11.9	0.7	-5.2
CCN(CC)c1ccc(NC(=O)c2ccc3c(c2)c(C)c(C)n3C)cc1	39.7	14.9	25.5	0.2	69.0*	-12.4	-11.4	-0.5	-3.5	25.9
COC(=O)c1cn(C(=O)c2cc(OC)c(OC)c(OC)c2)c2ccccc12	-1.8	-2.0	1.0	0.0	2.2	2.4	10.1	7.2	0.1	2.3
Cc1nc(NC(=O)c2ccccc2)sc1C1(C)CC(c2ccc(OC(F)(F)F)cc2)=NO1 (configuration not stated)	.	.	7.5	-0.9	38.1	.	.	.	-4.2	-3.6
CCC1CN(C(=O)N2CCC(C(=O)Nc3ccccc3OC)CC2)c2ccccc2O1 (configuration not stated)	-5.0	9.4	4.4	0.3	0.0	-8.7	-20.1	-1.1	-5.0	5.0
COC(=O)CCCC(=O)N1CCCC(CCC(=O)NCc2ccc(F)c(F)c2)C1 (configuration not stated)	-10.9	10.2	1.0	-0.7	9.0	5.1	9.2	2.4	2.6	-1.0
CC(=O)N1CCc2[nH]c3ccccc3c2C1	3.6	17.7	2.8	0.1	-13.3	.	.	.	-3.2	1.2
COc1cc(C(C)=O)ccc1Oc1ncnc2c1cnn2-c1ccc(C)c(C)c1	.	-1.2	3.0	2.2	-2.6	.	.	.	.	18.9
CC(C)(C)C(=O)NC(n1cnc2c(N3CCOCC3)ncnc21)C(Cl)(Cl)Cl (configuration not stated)	-25.9	0.4	-8.1	0.1	-4.5	-2.4	-2.5	-1.8	-8.2	0.6
Cc1cc2c(ncn2C(C)C)c(NS(=O)(=O)c2ccc(F)cc2)c1C	5.7	1.4	9.1	0.5	-8.0	-4.8	-15.1	-6.5	-2.7	26.3
Cc1cc(=O)n2nc(N3CCCC(C(=O)NCc4ccc(Cl)cc4)C3)sc2n1 (configuration not stated)	3.6	-1.7	-2.4	-0.7	-9.3	5.5	13.7	3.9	5.5	0.9
CCOc1ncccc1C(=O)OCc1c(F)cccc1Cl	.	2.0	-2.7	-1.3	-4.4	-36.8	-53.5	-10.2	-1.6	3.8
COc1ccc(Oc2cn[nH]c2-c2ccc(OC)cc2O)cc1	97.1*	-0.3	4.4	0.6	-1.4	-56.5	-77.2	-19.9	2.2	17.3
CCOC(=O)c1oc2ccccc2c1NC(=O)c1ccco1	-16.7	16.2	8.6	-1.1	-7.7	6.0	8.9	-0.5	-2.1	-6.7
CN(C)CCC(c1ccc(Cl)cc1)c1ccccn1 (configuration not stated)	2.8&-20.6&-9.0	-3.0&4.8	-4.4&-6.4	0.8&-0.4&0.6	10.2&-1.3	9.4	5.1	3.9	5.5&0.3&3.8	-10.5
O=C(CSc1ccc(-c2ccccn2)nn1)N1CCCCC1	-9.8	-0.7	1.9	1.1	3.3	-7.1	-6.8	9.2	-5.4	2.5
CN(CC(=O)Nc1cccc(F)c1)C(=O)c1ccccc1Cc1ccccc1	4.4	1.1	1.7	-1.2	-4.2	-6.4	-10.8	-3.5	-3.3	-12.8
CCOC(=O)C1CCN(C(=O)CN(c2ccc(Oc3ccccc3)cc2)S(C)(=O)=O)CC1	-25.2	-6.9	5.0	0.8	-3.7	0.0	1.5	-2.1	0.0	5.5
O=C(O)CN(c1ccccn1)S(=O)(=O)c1ccc(Cl)cc1	-2.5	7.8	-5.0	0.1	-9.5	.	.	.	-1.3	13.1
Nc1cccnc1-n1nc(C(F)(F)F)cc1C(F)(F)F	-9.9	-2.9	-10.7	0.9	2.8	7.0	-0.9	1.1	-0.2	?
CN(C(=O)COC(=O)Cc1c(Cl)cccc1Cl)C1CCS(=O)(=O)C1 (configuration not stated)	-1.4	11.6	-4.9	0.0	.	3.6	4.6	0.0	-2.6	.
CCn1cc(CN2CCCC(C(=O)Nc3ccc(-c4cscn4)cc3)C2)cn1 (configuration not stated)	-1.7	-14.1	0.2	0.3	43.8	.	.	.	-0.5	-1.9
CC(OC(=O)c1cccc(NS(C)(=O)=O)c1)C(=O)Nc1ccc(N2CCOCC2)cc1 (configuration not stated)	16.7	1.9	-3.6	-0.5	20.3	.	.	.	-6.7	9.3
Next section:
SMILES	ALR H2O2 inh	B2AR ag	Beta apoptosis	A1 inh	T cruzi repl	rRNA inh HTS	rRNA inh HTS OD600	rRNA inh HTS RFP	LANA-H2B inh	Calb FLC
CCOc1ccc(NC(=O)C/C(N)=N/O)cc1	3.5	17.8	-6.1	0.9	-12.7	.	.	.	-3.7	24.5
COc1ccc(OCCOCCN2CCc3ccccc3C2)cc1	.	0.2	-4.4	-0.7	58.0*	.	.	.	1.8	-35.0
Cc1ccc2nc3c(cc(C#N)c(=N)n3Cc3cccnc3)c(=O)n2c1	4.8	.	-4.0	3.0	0.2	.	.	.	-0.5	10.4
CCOC(=O)N1CCN(C(=O)COc2cccc3c2CCN(Cc2ccccc2C)C3=O)CC1	-1.3	-3.4	-10.6	0.1	-7.9	.	.	.	-0.2	12.1
Cc1ccc2c(c1)-n1c(nc3ccc(Cl)cc3c1=O)C(CC(C)C)NC2=O (configuration not stated)	-1.2	.	-2.4	0.0	.	11.4	6.1	-2.2	5.0	.
CCc1ccc(OC(=O)c2cccnc2)cc1	-7.8	0.1	0.1	1.2	-8.1	5.6	14.8	-1.0	-4.5	2.1
C/C(Cc1ccccc1)=N\NC(=O)c1cccnc1	44.1	-5.1	-3.5	0.4	-12.8	.	.	.	1.5	5.8
COC(=O)CCC(=O)Nc1sc(Cc2ccccc2)c(C)c1C(N)=O	4.4	0.5	-3.1	-0.7	-1.2	-0.6	-0.5	-0.9	21.6*	-21.6

Assay outcomes from PubChem BioAssay.
